FGF22 binding = shifts melting point of recombinant human FGF22 | Q9HCT0 | recombinant FGF22 thermal shift, SYPRO orange fluorescence; percent of sucrose octasulfate shift, DMSO zero | calls only at 9.99 µM | 340,000 tested, 1.5% active | AID 651658;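 active = melting point raised past a set limit in the mean and every replicate; three in four hits are not shown here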
Target sequence (Q9HCT0 whole entry, looked up): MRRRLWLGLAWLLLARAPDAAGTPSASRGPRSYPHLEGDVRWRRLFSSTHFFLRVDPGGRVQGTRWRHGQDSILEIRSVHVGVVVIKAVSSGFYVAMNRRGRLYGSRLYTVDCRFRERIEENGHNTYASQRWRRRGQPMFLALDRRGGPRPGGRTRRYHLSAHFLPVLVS
MLL AF4-AF9 inh = inhibitors of human MLL-AF4/AF9 interaction; AlphaScreen, biotin-AF4 peptide binding to FLAG-AF9; inhibition, % at 10 µM; P42568; 350,000 tested, 0.47% active;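 active = every replicate reaching a set inhibition limit, whatever the replicate mean, cut at about 25% in these data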;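 also: 0% = plate neutral control median and 100% = total signal loss; the record names both 10 and 1 µM as test concentration; the first replicate is given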
Target sequence (P42568 whole entry, looked up): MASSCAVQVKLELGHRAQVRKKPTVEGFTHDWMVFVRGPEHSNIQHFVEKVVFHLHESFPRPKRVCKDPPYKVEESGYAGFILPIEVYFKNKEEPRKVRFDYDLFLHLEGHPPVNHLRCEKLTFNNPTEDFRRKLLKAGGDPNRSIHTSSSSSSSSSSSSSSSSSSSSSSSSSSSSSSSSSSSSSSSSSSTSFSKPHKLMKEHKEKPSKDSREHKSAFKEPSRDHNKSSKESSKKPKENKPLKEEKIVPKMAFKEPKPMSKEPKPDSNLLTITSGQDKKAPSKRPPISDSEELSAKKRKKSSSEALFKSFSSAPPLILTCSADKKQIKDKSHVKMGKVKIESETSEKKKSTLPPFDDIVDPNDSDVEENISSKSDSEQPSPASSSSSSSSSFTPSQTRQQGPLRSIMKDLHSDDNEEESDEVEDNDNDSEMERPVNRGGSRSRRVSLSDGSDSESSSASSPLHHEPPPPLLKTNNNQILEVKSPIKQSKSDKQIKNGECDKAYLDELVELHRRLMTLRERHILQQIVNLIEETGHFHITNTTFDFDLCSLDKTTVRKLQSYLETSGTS
rRNA inh HTS = selective bacterial rRNA inhibition in E. coli; E. coli WT GFP vs humanized-ribosome RFP mutants, fluorescence, 24 h; active compounds read low; DMSO median 0, no signal -100; GFP signal change (wild-type ribosome), % (concentration not given with the values); 350,000 tested, 1.6% active; AID 720706;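 active = significant combined selectivity score with lowered wild-type GFP, culture density cut under 30%, mutant RFP and density less affected; inactive = any of these conditions unmet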; also: one replicate is shown; some compounds called inactive have numbers as strong as hits
rRNA inh HTS OD600 = also measured in rRNA inh HTS; calls as there; OD600 change, %; measured here: OD600 growth;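 optical density of the mix in the first replicate; 0 = DMSO median and -100 = no signal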
rRNA inh HTS RFP = further read-out of rRNA inh HTS, marked with its call; RFP signal change, %; measured here: RFP humanized mutant strains;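 first replicate; 0 = DMSO median and -100 = no signal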
The depositor's hits bear a star; i = inactive; + = active, no number.

Start of the listing, in advance:
SMILES | FGF22 binding | MLL AF4-AF9 inh | rRNA inh HTS | rRNA inh HTS OD600 | rRNA inh HTS RFP
C[C@@H]1CCCCO[C@@H](CN(C)CC2CC2)[C@@H](C)CN([C@H](C)CO)C(=O)c2cc(NC(=O)Nc3ccc(F)cc3)ccc2O1 | i | 8.0 | 3 | -3 | -0.3
COCC(=O)Nc1ccc2c(c1)C(=O)N(C)[C@@H]1CC[C@@H](CC(=O)Nc3ccccc3)O[C@H]1CO2 | i | 3.8 | -3 | 3 | 5.1
CCc1nc2ccc(C(=O)NCc3ccccc3OC)cn2c1N(C=O)CCC(C)C | i | -2.1 | -1 | 19 | -2.5
CC(C)NC(=O)Nc1cccc2c1O[C@@H](CN(C)C(=O)Nc1ccc(F)cc1)[C@H](C)CN([C@H](C)CO)C2=O | i | -0.4 | -1 | 1 | -1.9

The listing, from the first entry:
SMILES | FGF22 binding | MLL AF4-AF9 inh | rRNA inh HTS | rRNA inh HTS OD600 | rRNA inh HTS RFP
C[C@@H]1CCCCO[C@@H](CN(C)CC2CC2)[C@@H](C)CN([C@H](C)CO)C(=O)c2cc(NC(=O)Nc3ccc(F)cc3)ccc2O1 | i | 8.0 | 3 | -3 | -0.3
COCC(=O)Nc1ccc2c(c1)C(=O)N(C)[C@@H]1CC[C@@H](CC(=O)Nc3ccccc3)O[C@H]1CO2 | i | 3.8 | -3 | 3 | 5.1
CCc1nc2ccc(C(=O)NCc3ccccc3OC)cn2c1N(C=O)CCC(C)C | i | -2.1 | -1 | 19 | -2.5
CC(C)NC(=O)Nc1cccc2c1O[C@@H](CN(C)C(=O)Nc1ccc(F)cc1)[C@H](C)CN([C@H](C)CO)C2=O | i | -0.4 | -1 | 1 | -1.9
CC1(C)CC(=O)C=C(C#CC2CC2)C1 | i | -4.5 | 14 | 14 | 1.9
C[C@H]1CN([C@@H](C)CO)C(=O)Cc2cc(NC(=O)Nc3ccc(C(F)(F)F)cc3)ccc2O[C@H]1CN(C)Cc1ccc(C(=O)Nc2ccccc2N)cc1 | i | -5.9 | 1 | -7 | -2.0
C[C@H](CO)N1C[C@H](C)[C@H](CN(C)C)OCCCC[C@H](C)Oc2ccc(NC(=O)c3ccncc3)cc2C1=O | i | -5.4 | 1 | 6 | -1.2
O=C(CN1CCOCC1)NCC[C@@H]1CC[C@@H](NC(=O)c2ccc3c(c2)OCO3)[C@H](CO)O1 | i | 1.4 | 1 | 4 | -2.0
C[C@@H]1CN([C@@H](C)CO)C(=O)c2ccccc2-c2ccccc2CO[C@H]1CN(C)C(=O)Nc1ccc(F)cc1 | i | -13 | -1 | 4 | 1.2
Cc1ccnn1-c1ccc(C(=O)OCC(=O)Nc2ccc(F)cc2)cc1 | i | -20 | 6 | 7 | 0.5
CN(C)CC#Cc1ccc([C@@H]2[C@H](CO)N3CCCCN(C(=O)Nc4cc(F)ccc4F)C[C@@H]23)cc1 | i | 9.6 | 0 | 9 | 0.5
Cc1noc(C)c1NC(=O)Nc1cccc2c1O[C@@H](CN(C)S(=O)(=O)c1ccc(F)cc1)[C@@H](C)CN([C@H](C)CO)C2=O | i | -2.5 | 1 | 3 | -1.4
C[C@@H]1CN([C@@H](C)CO)C(=O)c2cccc(NC(=O)Nc3ccc(C(F)(F)F)cc3)c2O[C@H]1CN(C)C | i | -2.3 | -1 | -10 | 4.2
Cn1c(=O)c2c(nc(CCC3CCCC3)n2C)n(C)c1=O | i | 0.6 | -3 | 2 | -3.3
O=C(NCc1ccncc1)[C@@H]1CCCN1C(=O)[C@H]1CCCN1 | i | -2.0 | 4 | 19 | -2.7

Pulled one by one from the entries so far (four):
SMILES | FGF22 binding | MLL AF4-AF9 inh | rRNA inh HTS | rRNA inh HTS OD600 | rRNA inh HTS RFP
O=C(NCc1ccncc1)[C@@H]1CCCN1C(=O)[C@H]1CCCN1 | i | -2.0 | 4 | 19 | -2.7
O=C(CN1CCOCC1)NCC[C@@H]1CC[C@@H](NC(=O)c2ccc3c(c2)OCO3)[C@H](CO)O1 | i | 1.4 | 1 | 4 | -2.0
Cn1c(=O)c2c(nc(CCC3CCCC3)n2C)n(C)c1=O | i | 0.6 | -3 | 2 | -3.3
C[C@@H]1CCCCO[C@@H](CN(C)CC2CC2)[C@@H](C)CN([C@H](C)CO)C(=O)c2cc(NC(=O)Nc3ccc(F)cc3)ccc2O1 | i | 8.0 | 3 | -3 | -0.3

Continuation:
SMILES | FGF22 binding | MLL AF4-AF9 inh | rRNA inh HTS | rRNA inh HTS OD600 | rRNA inh HTS RFP
C[C@H](CO)N1C[C@H](C)[C@H](CN(C)C)Oc2ccc(NC(=O)NC3CCCCC3)cc2CC1=O | + | -0.2 | 6 | 10 | -1.1
O=C(Nc1ccc2c(c1)[C@H]1C[C@@H](CC(=O)N3CCc4ccccc4C3)O[C@@H](CO)[C@H]1O2)NC1CCCC1 | i | 1.0 | -7 | 2 | 4.9
CCS(=O)(=O)Nc1ccc2c(c1)C(=O)N(C)[C@@H]1CC[C@@H](CC(=O)NCCCN3CCOCC3)O[C@@H]1CO2 | i | -0.2 | 5 | 24 | 0.3
NC(Cc1ccccc1)c1csc(NC(=O)c2cccc(OC(F)(F)F)c2)n1 (stereo not given) | i | 3.1 | -34 | -65 | -2.2
COc1ccccc1-c1ccc2c(c1)O[C@H](CN(C)S(=O)(=O)c1ccc(F)cc1)[C@H](C)CN([C@@H](C)CO)S2(=O)=O | i | 0.2 | 0 | 1 | -2.5
O=C(CSc1nc(-c2ccc(F)cc2)nc2c1Cc1ccccc1O2)Nc1ccc(C(=O)O)cc1 | i | 0.4 | -21 | -20 | 0.9
CCCCc1c(-c2ccccc2)ncn1CCc1ccccc1OC | i | 4.7 | -63 | -79 | -20
COCC#Cc1ccc2c(c1)O[C@@H](CN(C)C(=O)C1CC1)[C@H](C)CN([C@@H](C)CO)S2(=O)=O | i | -4.8 | 3 | 1 | -1.7
COCC(=O)N(C[C@H]1N[C@H](CO)[C@@H]1c1ccc(-c2cccnc2)cc1)C(C)C | i | -1.5 | 2 | 3 | -3.2
Cc1noc(C)c1NC(=O)Nc1ccc2c(c1)C(=O)N([C@@H](C)CO)C[C@@H](C)[C@H](CN(C)C(=O)NC(C)C)OCCCC[C@H](C)O2 | i | -3.2 | 1 | 0 | -1.3
O=C1NC(Cc2cccc(Cl)c2)COCc2cnnn2CCC1c1ccccc1 (stereo not given) | i | 1.6 | 0 | -1 | -0.3
Cc1ccccc1-c1ccccc1CN1[C@@H](C(C)C)COCCS1(=O)=O | i | 0.0 | -24 | -33 | -9.2
C[C@H](CO)N1C[C@H](C)[C@H](CN(C)Cc2ccc(C(F)(F)F)cc2)Oc2ccc(NC(=O)CCC(F)(F)F)cc2CC1=O | i | -2.2 | 0 | -7 | -1.6
O=C(NC[C@@H]1N[C@@H](CO)[C@H]1c1ccc(-c2ccccc2F)cc1)c1ccccc1 | i | 3.9 | -52 | -77 | -4.2
COC(=O)c1cc(N/C(N)=N/c2nc(C)cc(C)n2)cc(C(=O)OC)c1 | i | -3.5 | 12 | 18 | 1.9
O=Cc1cc([B-](F)(F)F)cs1 | i | -3.5 | 3 | 13 | -1.7
CO[C@H]1CN(C)C(=O)c2ccc(NC(C)=O)cc2OC[C@H](C)N(Cc2ccccc2F)C[C@H]1C | i | 2.2 | -4 | -1 | 0.4
C[C@H]1CN([C@@H](C)CO)C(=O)Cc2cc(NC(=O)Cn3cnnn3)ccc2O[C@H]1CN(C)S(=O)(=O)c1ccccc1 | i | -2.6 | 3 | 11 | 0.2
C[C@@H]1CN([C@H](C)CO)C(=O)c2cccc(NC(=O)Nc3ccc(C(F)(F)F)cc3)c2O[C@@H]1CN(C)Cc1ccccc1 | i | 3.4 | -18 | -50 | 20
CCc1cnc(N2[C@@H](C#N)[C@H](c3ccc(C4=CCCC4)cc3)[C@@H]2CO)s1 | i | -0.3 | 1 | 3 | 1.5
COCCNC(=O)C1CCCN(C(=O)C2(c3ccc(Cl)cc3)CCCC2)CC1 (stereo not given) | i | -0.4 | -10 | -13 | 5.3
COc1ccc(S(=O)(=O)N(C)C[C@@H]2OCc3ccccc3-c3c(n(C)c4ccccc34)C(=O)N([C@@H](C)CO)C[C@@H]2C)cc1 | i | 2.5 | -1 | 10 | -0.8
C[C@@H]1CN([C@@H](C)CO)C(=O)c2cccc(NC(=O)Nc3ccc(C(F)(F)F)cc3)c2O[C@@H]1CN(C)S(C)(=O)=O | i | 1.0 | -4 | -7 | 1.6
Cc1noc(C)c1NC(=O)Nc1cccc2c1O[C@H](CN(C)Cc1ccncc1)[C@@H](C)CN([C@H](C)CO)C2=O | i | -1.8 | 1 | -3 | -1.9
CC1(C(=O)Nc2cnc3ccccc3c2)CCN1Cc1ccc(-c2ccccc2)o1 (stereo not given) | i | 0.8 | 5 | 10 | -2.1
CC(C)NC(=O)N(C)C[C@H]1OCCCC[C@@H](C)Oc2ccc(NS(=O)(=O)c3ccc(Cl)cc3)cc2C(=O)N([C@@H](C)CO)C[C@@H]1C | i | -1.7 | 0 | -6 | 3.4
C[C@H](CO)N1C[C@H](C)[C@@H](CN(C)C(=O)Nc2ccc3c(c2)OCO3)OCCCC[C@H](C)Oc2ccc(NS(C)(=O)=O)cc2C1=O | i | -0.2 | 2 | -8 | -0.7
C[C@H](CO)N1C[C@H](C)[C@H](CN(C)S(C)(=O)=O)Oc2ccc(NS(=O)(=O)c3cccs3)cc2CC1=O | i | -2.9 | 5 | 2 | -2.5
Cc1ccccc1NC(=O)Nc1ccc2c(c1)C(=O)N(C)[C@@H]1CC[C@H](CC(=O)NCC3CC3)O[C@H]1CO2 | i | -1.6 | 3 | 7 | 1.3
COc1cccc(CNc2nc3cc(-c4ccc(OC)c(OC)c4)sc3c(=O)n2C)c1 | i | 3.8 | 23 | 10 | 3.7
COc1ccc(CN(C)C[C@@H]2OCCCC[C@H](C)Oc3ccc(NS(=O)(=O)c4ccccc4)cc3C(=O)N([C@H](C)CO)C[C@H]2C)cc1 | i | 1.4 | 7 | 6 | 2.4
C[C@H](CO)N1C[C@H](C)[C@H](CN(C)C(=O)Nc2ccc(F)cc2)Oc2c(NC(=O)C3CCCCC3)cccc2C1=O | i | -1.5 | -3 | -1 | -3.0
CCCNC(=O)N1C[C@@H](O)COC[C@H]2O[C@H](CC(=O)NCc3ccc(Cl)c(Cl)c3)CC[C@@H]21 | i | -3.1 | -2 | 8 | -2.8
C[C@@H]1CN([C@H](C)CO)C(=O)c2cccc(NS(=O)(=O)c3ccc(Cl)cc3)c2O[C@@H]1CN(C)CC1CCCCC1 | i | 2.3 | -3 | -6 | 1.7
CNC[C@@H]1Oc2ncc(-c3cccc(C(F)(F)F)c3)cc2C(=O)N([C@H](C)CO)C[C@@H]1C | i | -0.4 | 3 | 7 | 0.0
C[C@@H]1CCCCO[C@H](CN(C)Cc2ccccc2)[C@H](C)CN([C@H](C)CO)C(=O)c2cc(NS(=O)(=O)c3ccccc3)ccc2O1 | i | 1.7 | 2 | -9 | 1.5
C[C@H](CO)N1C[C@H](C)[C@@H](CN(C)C(=O)c2cccc(F)c2)Oc2ncc(C3=CCCCC3)cc2C1=O | i | 0.8 | -9 | -1 | 4.7
COc1ccc([C@H]2C[C@@H](n3cc(-c4ccc(F)cc4)nn3)[C@H](O)CN2Cc2cccs2)cc1 | i | -1.9 | -12 | -24 | 5.0
COc1ccccc1-c1ccc([C@@H]2[C@@H](CO)N(C(=O)C3CC3)C23CN(C(C)=O)C3)cc1 | i | -1.5 | -1 | 0 | 3.6
C[C@H]1CN([C@@H](C)CO)C(=O)c2cc(/C=C/c3ccccc3)cnc2O[C@@H]1CN(C)S(=O)(=O)c1cn(C)cn1 | i | 4.1 | -4 | -6 | 0.1
CCN(CC)C(=O)Cn1cc([N+](=O)[O-])cc1[N+](=O)[O-] | i | -3.1 | -6 | 16 | 8.6
CCC(=O)Nc1ccc2c(c1)OC[C@H](C)N(C(=O)c1ccc(F)cc1)C[C@H](C)[C@@H](OC)CN(C)C2=O | i | -0.6 | 3 | 3 | -0.1
O=C(NCC[C@H]1CC[C@@H](NS(=O)(=O)Cc2ccccc2)[C@H](CO)O1)C1CCCCC1 | i | -2.9 | -1 | 7 | -1.3
CO[C@@H]1CN(C)C(=O)c2ccc(NC(=O)C3CCCC3)cc2OC[C@H](C)N(C(=O)CC2CC2)C[C@H]1C | i | -1.7 | -2 | -3 | 0.0
CC(C)CNc1ncnc2c1ncn2[C@H]1CN(Cc2ccc(Cl)cc2)C[C@@H](CO)O1 | i | 1.0 | 2 | -17 | -3.5
Cn1c(NCc2cccnc2)nc2cc(-c3ccc(F)cc3)sc2c1=O | i | -1.8 | -3 | 7 | -7.9
C[C@@H]1CCCCO[C@@H](CN(C)Cc2ccc(Cl)c(Cl)c2)[C@H](C)CN([C@H](C)CO)C(=O)c2cc(NC(=O)c3ccccc3)ccc2O1 | i | -2.4 | 1 | -2 | 0.4
C[C@@H]1CN([C@H](C)CO)C(=O)Cc2cc(NS(=O)(=O)c3cn(C)cn3)ccc2O[C@@H]1CN(C)S(=O)(=O)c1cccs1 | i | 0.7 | 3 | 10 | 1.2

Taken from above.
Value of `C[C@@H]1CCCCO[C@H](CN(C)Cc2ccccc2)[C@H](C)CN([C@H](C)CO)C(=O)c2cc(NS(=O)(=O)c3ccccc3)ccc2O1` in rRNA inh HTS OD600: -9
Value of `C[C@@H]1CCCCO[C@@H](CN(C)Cc2ccc(Cl)c(Cl)c2)[C@H](C)CN([C@H](C)CO)C(=O)c2cc(NC(=O)c3ccccc3)ccc2O1` in rRNA inh HTS RFP: 0.4

Screening results as filed in PubChem BioAssay.

Only part of the results is shown; the hit share may differ from the screen's.
